Rce1 inh: yeast Ras-converting enzyme inhibition | Q03530 | yeast membranes, quenched prenylated peptide cleavage fluorescence | calls only | 290,000 compounds, 0.27% hits | AID 2563;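 active = fall in fluorescence gain of 50% or more versus controls, with final raw signal at or below 3038400; inconclusive = same 50% fall but final raw signal above 3038400; inactive = fall in fluorescence gain under 50%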;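 note: plate controls were neutral control wells for no effect and wells lacking membranes for full effect; tested at 10 µM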
Target sequence (Q03530 whole entry, looked up): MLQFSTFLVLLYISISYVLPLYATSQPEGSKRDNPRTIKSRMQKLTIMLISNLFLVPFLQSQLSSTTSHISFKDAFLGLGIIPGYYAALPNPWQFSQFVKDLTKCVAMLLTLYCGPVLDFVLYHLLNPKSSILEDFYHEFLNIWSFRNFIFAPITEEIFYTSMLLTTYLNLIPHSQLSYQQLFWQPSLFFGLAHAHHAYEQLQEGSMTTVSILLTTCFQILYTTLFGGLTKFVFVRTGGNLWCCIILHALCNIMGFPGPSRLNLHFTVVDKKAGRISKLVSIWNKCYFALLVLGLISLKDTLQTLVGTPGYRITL
HIV Env fusion: blocks HIV Env-driven cell-cell fusion | 360,000 compounds, 1.1% hits | HeLa-JRFL Env/CEM21 cell fusion, luciferase | inhibition, % at 12.3 µM;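 active = mean replicate inhibition score of at least 50 and every replicate individually at or above 50; inconclusive = only one of the two criteria met; inactive = mean below 50 and not all replicates reaching 50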;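 note: 0% = plate neutral controls and 100% = maraviroc near 300 nM; one replicate is shown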
Yeast UUG start: alters start codon recognition fidelity in yeast; 350,000 compounds, 0.13% hits; S. cerevisiae UUG-firefly luciferase reporter, luminescence/redox ratio; activity score, % at 18.7 µM; AID 602363;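 active = replicate mean at a twofold rise or more, about +100% in these data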;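 note: firefly luciferase made from a UUG start codon reports start codon fidelity; reporter light over untreated wells divided by growth signal over untreated wells; some hits fall short of that in this replicate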
eIF4H FP inh: inhibitors of RNA binding by human eIF4H. eIF4H fluorescence polarization binding assay. inhibition, % at 35 µM. 290,000 compounds, 0.94% hits. Q15056;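 active = 50% or more with normal probe brightness, or confirmed in later tests; inconclusive = above 50% with abnormal brightness, or retests that disagree; inactive = below 50% or failed in later tests; about a fifth of its hits are not listed in these tables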;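 note: calls also rest on retests at 20 µM and on dose response follow-up; 0% = protein and probe with vehicle and 100% = probe without protein; strong numbers were not always called active; many hits fall short of the cut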
MT1-MMP act inh: inhibitors of human MT1-MMP activation; HT1080 RFP-PRO-GFP cells, GFP/RFP ratio fluorescence, overnight; percent of plate control window, DMSO zero; GFP/RFP ratio change, % at 20 µM; 360,000 compounds, 0.061% hits;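 active = GFP/RFP ratio change of at least 30% with cell ATP level not reduced by more than half and red fluorescence within 50% of control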; note: strong numbers were not always called active
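Test system: HT1080 RFP-PRO-GFP cells; Benchmarks: DMSO and RFP-L50D-GFP cell wells; Timing: cells overnight before dosing, compound overnight, 37 °C, 5% CO2; Compound: one 20 µM compound dose with 1% DMSO; Read-out: GFP/RFP fluorescence ratio.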
PABP polyA inh: PABP-poly(A) binding inhibition; P11940; PABP-poly(A) RNA binding, fluorescence polarization; inhibition, % at 35 µM; 290,000 compounds, 1% hits;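 active = 50% or more with normal probe brightness, or confirmed in later tests; inconclusive = above 50% with abnormal brightness, or retests that disagree; inactive = below 50% or failed in later tests; about a fifth of its hits are not listed in these tables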;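 note: calls also rest on retests at 20 µM and on dose response follow-up; controls were probe without protein and protein plus probe with vehicle; some compounds called inactive have numbers as strong as hits; many hits fall short of the cut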
Target sequence (P11940 whole entry, looked up): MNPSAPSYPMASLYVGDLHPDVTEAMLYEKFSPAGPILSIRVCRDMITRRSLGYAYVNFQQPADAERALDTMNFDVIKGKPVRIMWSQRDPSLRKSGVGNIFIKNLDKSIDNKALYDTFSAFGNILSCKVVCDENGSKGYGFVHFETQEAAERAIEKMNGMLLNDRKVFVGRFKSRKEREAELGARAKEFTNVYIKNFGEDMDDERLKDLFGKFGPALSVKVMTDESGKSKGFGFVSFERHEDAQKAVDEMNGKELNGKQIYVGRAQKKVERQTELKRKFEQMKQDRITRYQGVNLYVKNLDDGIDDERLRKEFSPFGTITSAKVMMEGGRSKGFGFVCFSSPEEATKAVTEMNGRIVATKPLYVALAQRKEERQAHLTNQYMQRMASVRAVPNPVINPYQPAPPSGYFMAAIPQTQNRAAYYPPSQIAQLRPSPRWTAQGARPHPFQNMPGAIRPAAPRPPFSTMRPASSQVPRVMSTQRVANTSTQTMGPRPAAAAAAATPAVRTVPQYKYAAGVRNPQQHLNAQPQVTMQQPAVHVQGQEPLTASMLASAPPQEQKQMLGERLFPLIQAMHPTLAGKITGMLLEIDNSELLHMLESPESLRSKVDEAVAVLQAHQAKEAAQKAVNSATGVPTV
CSC inhib: cancer stem cell inhibition | inhibition, % at 7.5 µM | AID 2717 | cancer stem cell-like cells viability, luminescence | 300,000 compounds, 1.1% hits;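 active = mean at 75% or more and at least half the replicates too; inconclusive = mean and replicates disagree; tested in HMLE shEcad cells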;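 note: 0% = median of negative and 100% = median of positive control wells; the first replicate is given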
eIF4H FP inh retest: recorded beside eIF4H FP inh, whose call it bears; inhibition, %; compound at 20 µM; confirmation average;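 mean of two retest wells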
PABP polyA inh retest: recorded beside PABP polyA inh, whose call it bears; inhibition, %; compound at 20 µM; confirmation repeats;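 mean of two retest wells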
MT1-MMP act inh RFP: second read-out of MT1-MMP act inh, no call of its own (marks repeat the call); RFP signal change, %; measured here: RFP expression control read;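 0 = vehicle wells; hits needed this value within 50% of zero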
An asterisk follows results filed as active; i = inactive; ? = inconclusive; . = not tested or not shown; + = active, no number; & = joins results of further samples; [ ] = remark or other dose.

SMILES	Rce1 inh	HIV Env fusion	Yeast UUG start	eIF4H FP inh	MT1-MMP act inh	MT1-MMP act inh RFP	PABP polyA inh	CSC inhib	others
Cc1cc2ccccc2n1CCNC(=O)C(C)C	i	0	2	84	26	26	85	6	eIF4H FP inh retest=-1;PABP polyA inh retest=0
CCOC(=O)/C(=C/c1ccc(N2CCC(c3ccccc3)=N2)cc1)C(C)=O	i	.	.	?	-63	-6	0	.
Cn1c(NCc2ccco2)nc2c1c(=O)n(Cc1ccc(Cl)cc1Cl)c(=O)n2C	i	-2	-12	0	-3	-7	-6	-9
CN1CCN(CC(=O)N2c3ccccc3Sc3ccccc32)CC1	i	19	-14	1	0	-1	2	.
CCOC(=O)c1cc(C(=O)OCC)c2cccc(C)n2c1=O	i	.	6	4	2	4	-3	-2
COc1cccc(NC(=O)CN(C)C(=O)c2ccc3[nH]c4c(c3c2)CC(C)CC4)c1 (stereo unspecified)	.	-22	-21	.	6	3	.	.
Cc1cc(C(=O)NCCC2=CCCCC2)c(C)o1	i	.	-6	0	1	7	11	1
Cc1ccc(Cc2c(-c3ccccc3)nc3c(Cl)cc(C(F)(F)F)cn23)cc1	.	7	-11	.	-5	1	.	.
Cc1cc(C(=O)N2CCCC(CO)(Cc3ccc(F)cc3)C2)c(C)o1 (stereo unspecified)	.	9	-16	-14	-3	1	-5	-6
Cc1nc2c3cc(F)ccc3n(Cc3ccc(F)cc3)c2s1	i	35	.	5	-4	-9	-17	41
CC(C)CN(C(=O)CCc1ccccc1Cl)c1c(N)n(Cc2ccccc2)c(=O)[nH]c1=O	i	-24	-4	.	-9	-3	.	3
COc1ccccc1Oc1nc2ccccn2c(=O)c1/C=C(\C#N)C(=O)Nc1c(C)n(C)n(-c2ccccc2)c1=O	i	8	112*	16	-3	0	19	-2
Cc1cc(C(=O)OCC(=O)NCc2ccccc2Cl)c(C)o1	i	14	.	3	0	-1	0	-12
Cc1c(Cl)cccc1NC(=O)Nc1ccccc1C(N)=O	i	26	.	8	-7	-2	-10	-11
CCCCc1c(C)nc2nc(SCc3ccc(Cl)cc3)[nH]n2c1=O	i	6	-8	-1	0	-2	0	23
CCOC(=O)c1ccc2c(c1)N(C)C(=O)c1ccccc1S2	i	.	-9	.	-10	-4	.	-10
CCCCCCCC(=O)NNC(=O)c1c(O)c2ccccc2[nH]c1=O	i	-26	1	-12	6	8	1	-3
O=C(Nc1ccc(S(=O)(=O)Nc2ccccc2)cc1)C1COc2ccccc2O1 (stereo unspecified)	+	23	-4	7	31*	-14*	-13	9
CCN1C(=O)C(F)(CC)C(=O)c2ccccc21 (stereo unspecified)	i	-33	2	4	3	4	6	-2
Cc1nc2c3ccccc3nc(NNC(=O)CCC(=O)N3CCN(c4ccc(F)cc4)CC3)n2n1	i	11	-12	-6	5	5	-8	13
CCC1=NC(c2ccc(Br)cc2)N(O)C1(C)C (stereo unspecified)	i	1	-27	2	8	7	-2	1
CN(C)S(=O)(=O)c1ccc(C(=O)NCCC(=O)N2CCCC2)cc1	i	0	14	0	2	2	3	.
Nc1nnc(SCCCC(=O)c2ccc(Br)cc2)s1	i	-3	.	-1	3	-4	1	20
Cc1ccc(CN(C)C(=O)c2c(C)nn(-c3ccccc3)c2C)cc1	i	-3	.	0	0	-1	4	-3
CC(=O)Cc1nsc(NC(=O)c2ccc(COc3ccccc3)o2)n1	i	-3	-15	-11	2	3	2	-9
CCN(CC(=O)N1CCCC1)S(=O)(=O)c1ccc2ccccc2c1	i	-1	16	-8	-1	0	2	4
Cc1[nH]nc2c1C(CCc1ccccc1)C(C#N)=C(N)O2 (stereo unspecified)	i	.	-31	-2	-2	5	12	.
CC(C)NC(=O)Nc1cccc2c1O[C@H](CN(C)C(=O)NC1CCCCC1)[C@@H](C)CN([C@H](C)CO)C2=O	.	2	0	.	2	3	.	5
O=C(NCc1cccnc1)C1CC(=O)N(c2ccc(Cl)cc2)C1 (stereo unspecified)	i	-91	-10	-3	0	2	-5	-4
Cc1cccc(-n2c(SCC(N)=O)nc3c(c2=O)C2(CCCCC2)Cc2ccccc2-3)c1	i	87*	-15	0	7	-28	-8	-6
COc1ccc(C(Nc2ccc(S(=O)(=O)N3CCOCC3)cc2)C(=O)NCCC(C)C)cc1OC (stereo unspecified)	i	-6	9	-5	-2	-1	-2	-7
CCCN(CC1CC1)C(=O)CSc1ncnc2sccc12	i	12	.	-9	-9	-1	46	-12
COc1cc(SC)ccc1C(=O)Nc1cc(C)ccn1	i	-117	.	-4	3	1	-2	-2
CC(=O)c1ccc(OCc2cc(C(=O)N(C)C3CCOC3)no2)cc1 (stereo unspecified)	i	-19	1	2	0	-1	4	1
COc1ccc(NC(=O)c2cncc(Br)c2)c(S(=O)(=O)N2CCOCC2)c1	i	.	3	-7	-2	2	1	-1
Cc1cc(C)cc(N2C(=O)CC(Sc3nnnn3-c3ccccc3)C2=O)c1 (stereo unspecified)	i	.	2	85	-6	-1	-3	.	eIF4H FP inh retest=-6;PABP polyA inh retest=18
Cc1ccc(S(=O)(=O)/N=C(/c2ccccc2)N2CCOCC2)c(C)c1	i	4	.	5	-2	0	-7	-7
COc1ccccc1N(C)S(=O)(=O)c1ccc(C(=O)N2CCC(C(N)=O)CC2)cc1	i	-58	-12	-10	3	0	-10	-3
CCN(CC)CCn1c(SCC(=O)NCc2ccco2)nc2c(sc3ccccc32)c1=O	i	-70	-16	-2	7	2	-5	-13
c1ccc(Nc2nc(N3CCCCC3)nc(N3CCNCC3)n2)cc1	i	.	-9	-4	-10	-5	8	-1
CCOC(=O)C1=CN(Cc2ccco2)S(=O)(=O)N(CC)C1c1ccccc1 (stereo unspecified)	.	7	-19	.	1	-1	.	.
S=c1[nH]nc(-c2n[nH]c3c2CCC3)n1/N=C/C=C/c1ccccc1	i	10	-24	0	3	-6	1	-1
COc1cc(/C=N/N2CCN(Cc3ccc(Cl)cc3)CC2)ccc1OC(C)=O	i	16	-10	0	7	-4	8	27
CC(NC(=O)C1CCCCC1)C(c1cccs1)N1CCOCC1 (stereo unspecified)	i	-5	4	3	1	1	-10	13
O=C(NCCSc1ccc(Cl)cc1)c1ccco1	i	-110	-26	-1	1	1	1	3
Cc1ccc(-c2nn(-c3cc(N4CCNCC4)ccc3[N+](=O)[O-])c(=O)c3ccccc23)cc1	i	-11	.	-8	-8	-5	-4	20
Cn1cccc1Cc1nnc(SCC(=O)N2CCCC2)n1CCc1ccccc1	i	12	-10	7	-1	2	5	-7
Oc1cccc2oc(=S)[nH]c12	.	3	-17	.	4	3	.	.
Cc1ccc(N(CC(=O)NCc2ccccc2)C(=O)CCC(=O)Nc2nccs2)cc1	i	-15	-18	7	-1	2	2	-3
COc1cc2ncnc(NCc3ccc(C)o3)c2cc1OC	i	28	.	2	5	2	0	-4
CCOc1ccccc1NC(=O)CC1(CC(=O)N2CCOCC2)CCCC1	.	6	-1	.	4	3	.	.
Cc1cccc(-c2c3c(=O)n(C)c(=O)n(C)c3cn2-c2ccccc2O)c1	i	.	.	6	5	9	26	-2
C[C@H]1CN([C@@H](C)CO)C(=O)CCCn2nncc2CO[C@@H]1CN(C)C(=O)Nc1ccc2c(c1)OCO2	.	-10	-14&19	.	1	3	.	.
CC1CCN(c2c(NCC3CCC(C(=O)NCc4ccccc4)CC3)c(=O)c2=O)CC1 (stereo unspecified)	i	13	3	-4	-1	4	-9	-8
CC(=O)c1ccc(C(=O)NC2CCCN(Cc3ccc(Cl)cc3)C2)s1 (stereo unspecified)	i	9	-6	-2	-4	-1	-3	-15
COc1ccccc1C(=O)Nc1ccc(S(=O)(=O)Nc2onc(C)c2C)cc1	i	-3	.	-12	-1	0	-9	4
CN(C)c1ccc(C(=S)NCc2ccco2)cc1	i	.	-35	3	2	5	16	2
COc1ccc(NC(=S)Nc2ccccc2)c(OC)c1	i	-22	.	-7	3	1	-13	5
Cn1ccc(C(=O)Nc2sc3c(c2C#N)CCC3)n1	i	-5	-19	.	-6	0	.	2
Cc1ccc(CC(=O)Nc2ccc(Cl)cn2)cc1	i	-63	-10	-3	-2	-2	-4	-12

Some of these compounds in order of length of the SMILES, ascending:
SMILES	Rce1 inh	HIV Env fusion	Yeast UUG start	eIF4H FP inh	MT1-MMP act inh	MT1-MMP act inh RFP	PABP polyA inh	CSC inhib	others
Cc1ccc(CC(=O)Nc2ccc(Cl)cn2)cc1	i	-63	-10	-3	-2	-2	-4	-12
COc1ccc(NC(=S)Nc2ccccc2)c(OC)c1	i	-22	.	-7	3	1	-13	5
C[C@H]1CN([C@@H](C)CO)C(=O)CCCn2nncc2CO[C@@H]1CN(C)C(=O)Nc1ccc2c(c1)OCO2	.	-10	-14&19	.	1	3	.	.

Remaining list, next part
SMILES	Rce1 inh	HIV Env fusion	Yeast UUG start	eIF4H FP inh	MT1-MMP act inh	MT1-MMP act inh RFP	PABP polyA inh	CSC inhib	others
Cc1[nH]cc(Br)c(=O)c1Oc1ncc(C(F)(F)F)cc1Cl	i	-4	13	9	1	3	14	4
S=C(NC1CCCC1)NC1CCCC1	i	1	.	2	4	0	-11	13
Cc1ccc(S(=O)(=O)/N=C(/c2ccccc2)N(C)c2ccc(O)cc2)cc1	i	6	.	2	-8	0	-5	8
C[C@@H]1CCCCO[C@H](CN(C)C(=O)Cc2ccccc2)[C@@H](C)CN([C@H](C)CO)C(=O)c2cc(N(C)C)ccc2O1	.	-6&-10[16.7 µM]	-20	.	-1	1	.	.
C#CCOCCOCCOCCNc1nc(N2CCOCC2)nc(N2CCN(C(=O)[C@H]([C@@H](C)CC)n3cc([C@@H](N)CC(C)C)nn3)CC2)n1	i	-7	9	-10	1	-1	-7	-13
COC(=O)c1sc(N(C)C)c(C#N)c1-c1ccccc1	i	1	-11	3	0	2	4	-12
Cc1cc(C)cc(NC(=O)CN2CCN(c3ccccn3)CC2)c1	i	28	-19	-10	1	1	-5	-10
Cc1ccc(S(=O)(=O)c2nc(S(=O)(=O)c3ccc(C)cc3)c(N3CCN(CCO)CC3)s2)cc1	i	1	2	-9	-5	-4	1	21
O=S(=O)(/C=C/c1ccccc1)N1CCN(c2nc(-c3cccnc3)nc3ccccc23)CC1	i	10	.	22	-7	-7	3	-6
Cc1nc(/C=C\C(=O)O)c2cc(C)oc2n1	i	-12	.	5	0	0	-8	1
COC(=O)CN(c1ccc(C)cc1)S(=O)(=O)c1c(C)[nH]c(=O)[nH]c1=O	i	-14	-3	-1	-3	0	1	15
COc1ccc(OC)c(NC(=O)C2(C)CCN2C(=O)Cc2ccc(Cl)cc2Cl)c1 (stereo unspecified)	.	-10	-5	.	-3	-6	.	.
CCOC(=O)CCc1c(C)c2ccc(OCc3cc([N+](=O)[O-])ccc3OC)c(C)c2oc1=O	i	25	.	14	.	.	-7	-1
CCN=c1sc(C(=O)NCCc2ccccc2)cc(=O)n1CC	i	-24	-17	-18	-7	-2	-1	15
COc1ccc(F)cc1C(=O)C1CCCN(C(=O)C2=C(C)OCCO2)C1 (stereo unspecified)	i	10	.	-17	1	-1	-3	0
CC(/C=N/N1CCN(c2ccccc2)CC1)=C\c1ccco1	i	.	-25	-4	0	-3	1	.
CC1(C)Oc2ccc(C(=O)NC3CC3)cc2N(CC(=O)N2CCOCC2)C1=O	i	-78	-14	2	1	-3	2	-11
CC1(C)C(=O)Nc2ccccc2N1C(=O)COC(=O)Cn1cnc2ccccc2c1=O	i	-40	-3	7	1	0	1	-7
COCCNC(=O)C1Cc2c(ccc3ccccc23)O1 (stereo unspecified)	i	-3	-9	-4	2	2	0	5
